Mtb H37Rv – M. tuberculosis H37Rv growth inhibitors, H37Rv strain (AID 1626); M. tuberculosis H37Rv growth inhibition; higher % means a stronger effect; inhibition, % at 10 µM; hits with a dose series show IC50 in µM; actives 0.95% (n = 220,000);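 active means confirmed in a dose series; inconclusive means inhibition above 80% but not taken into the dose series; inactive means below 80% or under 30% at every dose of the series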;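 further: bacteria incubated seven days before Alamar blue readout; 0% = bacteria only wells and 100% = bacteria with antibiotic wells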
Mtb bLac sens – beta-lactam sensitization of Mtb H37Rv, H37Rv | AID 434955, 2010 | actives 0.27% (n = 330,000) | inhibition, % at 25 µM | M. tuberculosis H37Rv growth with meropenem, percent inhibition; hits of this screen are not shown here;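 active means about 74% or more and at least 40 points above the plate without the antibiotic, then above 30% in a dose series; inconclusive means first-round hits that could not be retested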;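 further: growth measured after seven days incubation then overnight dye step; 0% = bacteria only wells and 100% = bacteria with antibiotic; twin plates without the antibiotic show which effects depend on it; some results filed as inactive read as strong as hits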
RecA splice inh – Mtb RecA intein splicing inhibitors, primary screen, biochemical, fluorescence, HTS; Protein RecA (Mycobacterium tuberculosis (strain ATCC 25618 / H37Rv)), P9WHJ3; cell-free RecA intein splicing; inhibition, %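 (about 9 µM by stock and volumes)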; actives 0.75% (n = 290,000); AID 2221, 2009; in the data active means inhibition above about 30%; inconclusive means no clear call, values can overlap the other calls;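 further: 0% = vehicle wells and 100% = reference inhibitor control wells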
Target sequence (P9WHJ3 whole entry, looked up, canonical isoform): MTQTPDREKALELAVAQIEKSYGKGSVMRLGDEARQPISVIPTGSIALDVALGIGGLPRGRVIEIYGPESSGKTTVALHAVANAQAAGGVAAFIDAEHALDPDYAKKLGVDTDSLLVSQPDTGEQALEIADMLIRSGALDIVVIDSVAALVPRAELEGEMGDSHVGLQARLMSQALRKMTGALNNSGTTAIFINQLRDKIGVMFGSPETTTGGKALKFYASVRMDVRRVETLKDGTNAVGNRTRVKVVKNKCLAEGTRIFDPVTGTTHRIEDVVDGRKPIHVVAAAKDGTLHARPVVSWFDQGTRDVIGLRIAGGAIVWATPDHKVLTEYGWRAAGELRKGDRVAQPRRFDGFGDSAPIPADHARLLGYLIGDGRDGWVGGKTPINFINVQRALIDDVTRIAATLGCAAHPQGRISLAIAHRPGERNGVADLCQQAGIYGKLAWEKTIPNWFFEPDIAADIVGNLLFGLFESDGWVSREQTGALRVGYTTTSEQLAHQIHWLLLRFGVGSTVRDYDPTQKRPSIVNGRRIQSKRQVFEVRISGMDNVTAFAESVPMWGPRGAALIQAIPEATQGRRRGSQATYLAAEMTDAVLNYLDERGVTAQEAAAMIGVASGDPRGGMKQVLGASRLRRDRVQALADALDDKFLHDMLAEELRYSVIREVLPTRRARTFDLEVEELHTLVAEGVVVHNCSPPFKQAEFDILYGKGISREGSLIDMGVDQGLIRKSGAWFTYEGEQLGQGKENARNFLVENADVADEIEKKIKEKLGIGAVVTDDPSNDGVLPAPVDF
YopH inh – YopH tyrosine phosphatase inhibitors, primary screen, biochemical, fluorescence Ex485/Em525 | inhibition, %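 (about 10 µM by stock and volumes)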 | actives 0.16% (n = 140,000) | AID 898, 2007;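 active means inhibition of 50% or more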;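 further: controls were vehicle for no effect and minimum signal wells for full effect; inactives centre near -20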
Arbovirus anti – antivirals against arbovirus infection, primary screen, cell-based, full library, 10K replicate subset | actives 0.37% (n = 200,000) | arbovirus infection cell-based antiviral screen | inhibition, % at 10 µM;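 active means inhibition from about 30%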;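 further: bluetongue infection of BSR cells; cell survival read as ATP light after 72 h; 0% = infected wells without compound and 100% = uninfected wells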
Arbovirus anti repeat – recorded beside Arbovirus anti, whose call it bears; inhibition, %; measured here: 10K subset replicate screen; many hits read low in the repeat;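 first of two repeat runs on a subset; 0% = infected and 100% = uninfected wells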
* = called active by the depositor; ? = inconclusive; nt = not tested or not shown.

SMILES | Mtb H37Rv | Mtb bLac sens | RecA splice inh | YopH inh | Arbovirus anti | others
COCCN(CCOC)S(=O)(=O)c1ccc(C(=O)Nc2nc(-c3ccncc3)cs2)cc1 | 1.0% | -6.6 | nt | -31.4 | 6.2
Cc1ccc(C(=O)N/N=C\c2ccc(-c3ccc(Cl)cc3)o2)cn1 | ? | 99.2 | 2.5 | nt | nt
Clc1ccc(CSc2nc3ccncc3[nH]2)cc1 | 5.8% | 1.6 | -0.2 | -49.0 | -12.7
Cc1ccc(S(=O)(=O)Nc2ccc(C(=O)NC3CC3)cc2)cc1 | nt | 9.9 | 1.0 | nt | nt
NC(=O)c1ccccc1NC(=S)NC(=O)c1ccc(Br)o1 | 6.9% | -5.9 | -1.2 | -20.1 | 4.6
COc1cc(OC)nc(NC(=S)NC(=O)c2ccccc2)n1 | -0.7% | 0.3 | -1.0 | -29.9 | -0.5
CCOC(=O)N1CCN(C(=O)c2ccc(Cn3c(=S)[nH]c4ccc(Br)cc4c3=O)cc2)CC1 | nt | 11.2 | -2.9 | nt | nt
O=C(NCc1ccc2c(c1)OCO2)c1ccc2c(c1)S(=O)(=O)c1ccccc1C2=O | -5.9% | 0.4 | -1.1 | nt | nt
Cc1cccnc1NC(=O)CCCc1c[nH]c2ccccc12 | nt | 6.6 | 1.5 | nt | nt
CC(=O)Oc1ccc(/C=N/NC(=O)c2ccc(N(C)S(=O)(=O)c3ccccc3)cc2)cc1 | nt | -1.8 | 24.6 | nt | nt
NC(=O)CC(NC(=O)c1cccc(Br)c1)c1ccc(NC2CCCCCCCCCCC2)c([N+](=O)[O-])c1 (stereo not drawn) | nt | 8.9 | 3.6 | nt | nt
CC(Oc1ccc(Cl)cc1)C(=O)N/N=C/c1ccsc1 (stereo not drawn) | 2.4% | 0.6 | -1.9 | -1.0 | -4.3
O=C(O)c1ccc(-c2ccc(/C=C3\NC(=O)N(Cc4ccc(Cl)cc4)C3=O)o2)cc1Cl | 0.1% | nt | -29.2 | nt | 26.0
CCCCOc1ccc(C2NC(=O)NC(C)=C2C(C)=O)cc1OCC (stereo not drawn) | 7.2% | -1.8 | -5.5 | nt | -4.9
NCCCC[C@H]1CNC(=S)N1CCCCC1CCCCC1 | -4.3% | -6.7 | -3.3 | nt | -17.2
C=CCNC(=O)c1cnn(-c2ccccc2)c1-c1ccccc1 | nt | 3.8 | 1.6 | nt | nt
COCCOc1cc2ncnc(N3CCC(C(=O)O)CC3)c2cc1OCCOC | -6.9% | -3.7 | 0.3 | nt | nt
Cc1cc(=O)n2c3ccccc3n(CC(O)CN3CCC(C)CC3)c2c1C#N (stereo not drawn) | 5.2% | nt | 6.8 | -7.2 | 8.3
O=C(OCc1nnn(Cc2ccccc2)c1-c1c(COC(=O)c2ccccc2)nnn1Cc1ccccc1)c1ccccc1 | -3.7% | -7.8 | nt | nt | nt
COc1cccc(-c2nc(N3CCN(c4ccccc4)CC3)c3ccccc3n2)c1O | -0.6% | -14.3 | -0.6 | -7.4 | -5.9
Cc1ccc(C)c(CN2C(=O)C3(OCCCO3)c3ccccc32)c1 | 3.4% | 4.7 | 7.7 | -21.4 | -3.6
CCS(=O)(=O)n1nc(-c2ccccc2)cc1N | 0.0% | -4.2 | -0.5 | -56.9 | -3.0 | Arbovirus anti repeat=-0.6
Cc1cccc(-n2cc(CNCCN3CCOC3=O)c(-c3cccc(F)c3)n2)c1 | 13.0% | -6.4 | 7.8 | nt | -8.9
N[C@@H](C(=O)N[C@@H]1C(=O)N2C(C(=O)O)=C(Cl)CS[C@H]12)c1ccccc1 | -14.5% | -1.3 | -5.0 | 97.1* | 1.9
CC(C)CCOc1ccc(C2=NNC(=O)CC2)cc1 | 8.8% | 4.5 | -0.4 | -27.7 | -11.2
O=C(/C=C/c1ccco1)NCC1OCCc2ccccc21 (stereo not drawn) | -0.9% | -10.6 | 6.1 | nt | nt
COc1ccc(S(=O)(=O)N2CCOC2CNC(=O)C(=O)NCCN2CCOCC2)cc1OC (stereo not drawn) | nt | -3.2 | 0.5 | nt | nt
COc1ccc(OC)c(NC(=O)CCN2C(=O)c3cccc([N+](=O)[O-])c3C2=O)c1 | nt | -2.2 | -7.5 | nt | nt
CC(=O)NC1C(OCc2cccc(Br)c2)OC(COC(C)=O)C(OC(C)=O)C1OC(C)=O (stereo not drawn) | -2.3% | 1.7 | -2.6 | nt | 4.2
Cc1cc(C)c(NS(=O)(=O)c2c(C)noc2C)c(C)c1 | nt | 3.0 | -3.9 | nt | nt
O=C(O)c1ccc(O)c(N2C(=O)Nc3ccccc3N2O)c1 | -1.4% | -2.9 | -6.0 | -14.7 | 1.1
COC(=O)C1=C(C)N(C)C(=O)NC1c1c(OC)ccc2ccccc12 (stereo not drawn) | nt | 3.8 | 0.0 | nt | nt
O=[N+]([O-])c1ccc(C2CC(c3ccccc3)=Nc3ccccc3S2)cc1 (stereo not drawn) | ? | 100.5 | -1.5 | nt | nt
CC12CC3(C)CC(C)(C1)CC(NC(=O)N1CCCC1)(C2)C3 | 1.9% | -6.6 | 2.1 | -5.6 | 4.7
CC(=O)Nc1ccc(NS(=O)(=O)c2ccc3c(c2)oc(=O)n3C)cc1 | nt | 4.8 | -1.0 | nt | nt
C=CCc1ccc(OCCn2nnc3ccccc32)c(OC)c1 | nt | 54.5 | 1.9 | nt | nt
Cc1c(/C(O)=C2\C(=O)C(=O)N(CCCN(C)C)C2c2ccccc2)cnn1-c1ccccc1 (stereo not drawn) | -6.3% | nt | nt | nt | 2.7
COn1c(-c2ccc(Cl)cc2)nc2ncccc21 | nt | -3.1 | -0.4 | nt | nt
O=C(CCc1ccc(S(=O)(=O)N2CCOCC2)cc1)Nc1ccc2ccccc2c1 | -9.2% | 22.4 | 0.6 | 18.4 | 1.9
C=CCSC1=C(C#N)C(c2ccccc2)CC(=O)N1 (stereo not drawn) | -5.1% | -2.2 | nt | -31.8 | 11.9
CCCCCCNc1nc(OC)nc(N2CC3CC(C2)c2cccc(=O)n2C3)n1 (stereo not drawn) | -4.0% | 6.5 | 1.9 | nt | 25.9
Cc1ccc(Nc2nc(/N=C/N(C)C)n[nH]2)cc1C | 1.7% | -10.6 | -1.7 | nt | 5.9
CC(=O)c1cc2c(=O)c3ccccc3oc2nc1C | -11.5% | -11.4 | 1.3 | -14.3 | nt
CCc1ccc(C2C(C#N)=C(N)C(C#N)(C#N)C3=CCC(C(C)(C)C)CC32)cc1 (stereo not drawn) | 6.1% | 19.7 | 30.4* | -1.1 | -34.7
O=C(Cc1cccs1)NCCS(=O)(=O)N1CCN(c2cccc(Cl)c2)CC1 | nt | -16.7 | -2.5 | nt | nt
CC(C)C(=O)Nc1ccc(Br)cc1Cl | -3.5% | -0.1 | 5.2 | nt | 0.1
COc1ccc(CN2C(=O)c3cccnc3C2Nc2ccc(C)cc2)cc1 (stereo not drawn) | 13.6% | -5.1 | nt | 7.4 | -5.9
Cc1ccc(C(=O)NNC(=O)c2ccc(SCC3CCCO3)c([N+](=O)[O-])c2)cc1 (stereo not drawn) | -8.1% | -5.0 | nt | 6.3 | 4.2
CCN1C(=NCCOC)N[C@@H](c2cccc(F)c2)C(C(=O)OC)=C1C | nt | -7.2 | 1.2 | nt | nt
CN(C)S(=O)(=O)c1ccc(S(=O)(=O)N2CCCC2)cc1 | -6.6% | 0.4 | -0.4 | -19.3 | 7.5
CS(=O)(=O)N(CC(=O)Nc1ccccc1Cl)c1ccc(Cl)cc1 | 2.5% | 4.8 | 3.8 | nt | 5.5
CCn1c(COc2ccc(=O)n(-c3ccccc3)n2)nnc1SCC(=O)OC | 0.7% | 0.9 | -0.8 | nt | 5.5
Cc1snc(SCc2c(F)cccc2Cl)c1C#N | nt | -3.5 | 0.8 | nt | nt
COC(=O)c1cc(S(=O)(=O)N2CCN(c3ccc(OC)cc3)CC2)cn1C | nt | -8.7 | 0.5 | nt | nt
Cc1c(C(=O)O)cnc2cc(-c3ccc(Cl)cc3)nn12 | 6.6% | 1.6 | -1.9 | -37.8 | 5.0
CC(C(=O)Nc1nccs1)c1ccc([N+](=O)[O-])cc1 (stereo not drawn) | 7.9% | 4.9 | 2.7 | nt | 1.3
Nc1cc(C(=O)OCC(=O)NC(c2ccccc2)c2ccccc2)ccc1Cl | 3.7% | 10.8 | -9.5 | -7.1 | -0.3
CCN(CC)CCn1c(N)cc(=O)[nH]c1=O | -7.0% | 1.3 | nt | nt | 13.0
Cc1cc(C(=O)N2CCN(c3ncccn3)CC2)nn1C | -10.1% | -1.8 | 0.5 | nt | nt
CC(C)N1CCN(Cc2coc3ccccc3c2=O)CC1CCO (stereo not drawn) | -5.0% | 7.1 | 0.3 | nt | 0.5

Sorted by molecular weight (largest number first): part of the list above.
SMILES | Mtb H37Rv | Mtb bLac sens | RecA splice inh | YopH inh | Arbovirus anti | others
CCOC(=O)N1CCN(C(=O)c2ccc(Cn3c(=S)[nH]c4ccc(Br)cc4c3=O)cc2)CC1 | nt | 11.2 | -2.9 | nt | nt
O=C(CCc1ccc(S(=O)(=O)N2CCOCC2)cc1)Nc1ccc2ccccc2c1 | -9.2% | 22.4 | 0.6 | 18.4 | 1.9
COCCOc1cc2ncnc(N3CCC(C(=O)O)CC3)c2cc1OCCOC | -6.9% | -3.7 | 0.3 | nt | nt
COC(=O)c1cc(S(=O)(=O)N2CCN(c3ccc(OC)cc3)CC2)cn1C | nt | -8.7 | 0.5 | nt | nt
CCN1C(=NCCOC)N[C@@H](c2cccc(F)c2)C(C(=O)OC)=C1C | nt | -7.2 | 1.2 | nt | nt
Cc1ccc(C)c(CN2C(=O)C3(OCCCO3)c3ccccc32)c1 | 3.4% | 4.7 | 7.7 | -21.4 | -3.6
CN(C)S(=O)(=O)c1ccc(S(=O)(=O)N2CCCC2)cc1 | -6.6% | 0.4 | -0.4 | -19.3 | 7.5
NCCCC[C@H]1CNC(=S)N1CCCCC1CCCCC1 | -4.3% | -6.7 | -3.3 | nt | -17.2
Cc1snc(SCc2c(F)cccc2Cl)c1C#N | nt | -3.5 | 0.8 | nt | nt
Cc1cccnc1NC(=O)CCCc1c[nH]c2ccccc12 | nt | 6.6 | 1.5 | nt | nt
CC(C(=O)Nc1nccs1)c1ccc([N+](=O)[O-])cc1 (stereo not drawn) | 7.9% | 4.9 | 2.7 | nt | 1.3
C=CCSC1=C(C#N)C(c2ccccc2)CC(=O)N1 (stereo not drawn) | -5.1% | -2.2 | nt | -31.8 | 11.9
CCN(CC)CCn1c(N)cc(=O)[nH]c1=O | -7.0% | 1.3 | nt | nt | 13.0

(further entries)
SMILES | Mtb H37Rv | Mtb bLac sens | RecA splice inh | YopH inh | Arbovirus anti | others
COc1ccc(C(=O)Nc2ccc(C(=O)OCC(=O)c3ccccc3)cc2)cc1 | 11.7% | 78.2 | -4.7 | -24.9 | -3.4
CSc1nnc(-c2ccco2)n1-c1ccccc1 | -1.7% | -8.6 | -1.8 | -2.9 | -4.4 | Arbovirus anti repeat=1.9
Cc1cccc(NC(=O)c2ccc([N+](=O)[O-])o2)c1C | 12.2µM* | 99.8 | -19.0 | nt | -29.2
O=S(=O)(Nc1nc2ccccc2nc1Cl)c1ccc2ccccc2c1 | 2.1% | 4.5 | 0.4 | -28.8 | 13.4
CN(C)Cc1nc2ccccc2c(=O)n1Cc1nc(-c2cccc([N+](=O)[O-])c2)cs1 | -0.8% | 30.9 | 6.0 | nt | 17.6
Cc1ccc(C(=O)N/C(=C\c2ccco2)C(=O)N2CCOCC2)cc1C | nt | 1.6 | -0.6 | nt | nt
Cn1nc(C(=O)NNC(=O)CCc2ccccc2Cl)c2ccccc2c1=O | nt | -8.8 | 0.2 | nt | nt
CCCNS(=O)(=O)c1ccc2c(c1)CCCN2C(C)=O | 4.8% | -4.2 | 1.2 | -38.6 | -1.7
COc1cc(CNc2ccccc2Oc2cc(=O)n(C)c(=O)n2C)cc(OC)c1OC | -11.3% | -1.3 | -0.2 | -18.1 | -2.8
CCCC(CCC(=O)Nc1cc([N+](=O)[O-])ccc1O)C(=O)O (stereo not drawn) | 3.6% | 0.9 | nt | nt | 10.8
Cc1ccc(CSCC(=O)N/N=C/c2ccc(OCC(=O)Nc3ccc(C)cc3)cc2)cc1 | nt | -6.4 | 1.5 | -21.6 | -27.5
CC(C)Sc1nc2c(c(=O)n(C)c(=O)n2C)n1Cc1ccc(Cl)cc1 | 2.2% | 14.2 | 4.6 | 9.8 | -2.8

Compound activity: PubChem, several laboratories

A portion of the library; rates above refer to the full screens.
